Source: PubChem
Prx2 Sm inh – Schistosoma Mansoni Peroxiredoxins (Prx2); Schistosoma mansoni peroxiredoxin 2 (Prx2); S. mansoni Prx2 activity coupled to TGR/GSH (TGR is thioredoxin glutathione reductase), NADPH fluorescence loss, qHTS; some inactives read as strong as hits; Potency, µM; 65,000 compounds, 0.07% hits; AID 448, 2006; active means full or partial inhibition curve with a strong effect at the top dose; inconclusive means weaker partial or single-point curve; inactive means no accepted curve; further: series up to 57 µM; many of its hits are not listed in these tables
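Coupled assay in which S. mansoni TGR passes NADPH reducing equivalents via glutathione to Prx2, which reduces H2O2. Compounds were preincubated 15 min at room temperature with 25 nM TGR/50 nM Prx2 mix. Kinetic NADPH fluorescence loss (ex 365/em 450 nm) was monitored.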
LT uptake inh – qHTS Assay for Anthrax Lethal Toxin Internalization; Potency, µM (series often up to 40 µM), for the others: at the top dose activity change, negative = inhibition, usual class: inhibitors; AID 912, 2007; 70,000 compounds, 0.67% hits; Cells, anthrax lethal toxin internalization, FRET ratio (460/530); active = well fitted falling ratio curve with the 530 nm signal flat; inconclusive = other ratio curves, or a change in one channel alone; inactive = flat curves in the ratio and both channels; the % refers to the ratio; further: on the % scale 0 is the no-effect control and ±100 the full control effect; nearly all actives have a fitted effect of over 50% in size; tested in ME-180 cells; beta-lactamase reporter
* marks the source's active call; other numbers are inactive results; ? = inconclusive; . = no result given; [ ] = another dose, or the depositor's remark. Potency means the concentration at half of the fitted maximal effect. An excerpt, so the mix of outcomes need not match the whole.

SMILES,Prx2 Sm inh,LT uptake inh
Cc1nc(-c2ccc(NS(C)(=O)=O)cc2)cs1,>57,13%
Cn1c(Cn2c(=O)sc3ccccc32)nnc1SCC(=O)Nc1cccc(Cl)c1,>57,7%
CC(=O)Nc1c(Cl)n(C(C)=O)c2ccccc12,.,-10%
CN(C(=O)c1cccc(C#N)c1)c1nnc(-c2ccncc2)s1,>57,-16%
Cc1noc(C)c1-c1cncnc1Nc1ccccc1,>57,-5%
COc1cc(NC(=O)C23CC4CC(C2)CC(n2nnc(C)n2)(C4)C3)c(OC)cc1Cl,>57,-1%
Cc1coc(NC(=O)CSc2nc(-c3ccncc3)cc(C(F)(F)F)c2C#N)n1,>57,?
O=C(Nc1ccc(F)cc1F)N1CCN(C/C=C/c2ccccc2)CC1,>57,-16%
CCN(CC)C[C@@H](O)c1ccc2ccc3ccccc3c2c1,>57,-12%[8 µM]
O=[N+]([O-])c1cc(Cl)c(Cl)c(Cl)c1,.,-2%

The list goes on; the last two above are carried over.
SMILES,Prx2 Sm inh,LT uptake inh
CCN(CC)C[C@@H](O)c1ccc2ccc3ccccc3c2c1,>57,-12%[8 µM]
O=[N+]([O-])c1cc(Cl)c(Cl)c(Cl)c1,.,-2%
CCOC(=O)NC(=O)CN1C(=O)NC(C)(c2ccccc2)C1=O (centres undefined),>57,-9%
Cn1c(Cn2c(=O)sc3ccccc32)nnc1SCC(=O)Nc1cccc(F)c1,>57,-2%
O=C1CCCC=C1[C@H](O)c1ccc([N+](=O)[O-])cc1,.,12%[8 µM]
COC(=O)Cc1c(C)nc2nc(-c3ccco3)[nH]n2c1=O,>57,12%
COc1ccccc1/C=C1/C(=N/O)C2CCN1CC2,>57,-19%
Cc1ccc(-n2nnnc2SCC(=O)c2cc(C)n(-c3cc(C)on3)c2C)c(C)c1,>57,?
CCCC[C@]1(C2CCCC2)Cc2cc(OCC(=O)O)c(Cl)c(Cl)c2C1=O,>57,4%
O=C1c2ccccc2C(=O)N1CCCc1nc2ccccc2c(=O)n1-c1cccnc1,.,13%
CN(c1ccc(O)cc1)c1nc(-c2ccccc2)cs1,>57,?
O=C(NCc1ccccn1)C1CCN(S(=O)(=O)N2CCCCC2)CC1,>57,-14%

Single records, as listed above. Values in the order: Prx2 Sm inh | LT uptake inh
`CCOC(=O)NC(=O)CN1C(=O)NC(C)(c2ccccc2)C1=O` (centres undefined) is listed as >57 | -9%
`COC(=O)Cc1c(C)nc2nc(-c3ccco3)[nH]n2c1=O` is listed as >57 | 12%
`Cc1nc(-c2ccc(NS(C)(=O)=O)cc2)cs1` is listed as >57 | 13%
`CC(=O)Nc1c(Cl)n(C(C)=O)c2ccccc12` is listed as . | -10%
`Cn1c(Cn2c(=O)sc3ccccc32)nnc1SCC(=O)Nc1cccc(F)c1` is listed as >57 | -2%

(continued)
SMILES,Prx2 Sm inh,LT uptake inh
Cn1c(=O)cc(OCCCC(=O)Nc2ccc3c(c2)OCCO3)c2ccccc21,>57,9%
COc1ccc(-c2nnn(CC(=O)Nc3sc4c(c3C#N)CCCC4)n2)cc1,?,?
COc1ccc(Cl)cc1N(CC(=O)Nc1ccc2c(c1)OCCO2)S(C)(=O)=O,.,7%
Cc1nnsc1NC(=O)OCC(C)C,>57,.
N[C@H](C(=O)O)c1ccc(C(=O)O)cc1,>57,-10%
CC(NC(=O)NCC1CCCO1)(C(F)(F)F)C(F)(F)F (centres undefined),>57,?
CCOc1ccc(-c2nc(=S)[nH][nH]2)cc1,>57,-7%
COC(=O)c1sc(NC(=O)c2ccc(OC)cc2OC)nc1C,>57,13%
COC(=O)c1cn(-c2ccccc2)nc1C(=O)OC,>57,9%
CCCCNC(=O)c1c[nH]c2ccc(S(=O)(=O)Nc3ccc(OCC)cc3)cc2c1=O,>57,29%
Cc1ccc2nc(S(=O)(=O)O)[nH]c2c1,>57,-9%
N#Cc1c(N)c(C(=O)c2ccc(Br)cc2)n2c1CCC2,.,-17%
CC1=C(C(N)=O)C(c2cccnc2)n2nc(SCc3ccccc3Cl)nc2N1 (centres undefined),>57,6%
COc1ccccc1N(C(=O)CNS(=O)(=O)c1ccccc1)C(C(=O)NCc1ccco1)C(C)C (centres undefined),>57,4%
Cn1ccnc1SCC(=O)Nc1ccc2ccccc2c1,>57,17%
Cc1cc(OCCCn2ccnc2)cc(C)c1Cl,>57,-14%
CCC(=O)c1cc(-c2nc3ccccc3n2C)n(C)c1,>57,26%
Cc1ccccc1Nc1ncnc2c1cnn2-c1ccccc1,>57,?
COCCN1C(=O)C(CC(=O)Nc2ccc(C(C)=O)cc2)SC1=Nc1ccccc1 (centres undefined),>57,-7%
Cc1cc(C)n(-c2nc3c(c(=O)[nH]c(=O)n3C)n2Cc2cccc(Br)c2)n1,>57,-1%
COc1cccc(C(=O)Nc2ncc3c(n2)CC(c2ccc(OC)cc2OC)CC3=O)c1 (centres undefined),>57,?
COc1ccc(CCN2C(=O)CC(N3CCOCC3)C2=O)cc1 (centres undefined),>57,?
Cc1nn(C)c(C)c1NC(=O)CN1CCC(O)(c2ccc3c(c2)OCO3)CC1,>57,-5%
O=C(NCCCn1ccnc1)Nc1ccc(Cl)cc1,>57,0%
CCOC(=O)N1CCN(C(=O)CN(c2cccc(C(F)(F)F)c2)S(C)(=O)=O)CC1,>57,0%
Cc1nc2ccc(NC(=O)N3CCSCC3)cc2nc1C,>57,9%
O=C(CN1C(=O)C2CC=C(Cl)CC2C1=O)NCc1ccccc1 (centres undefined),>57,-3%
Cc1cc(Nc2ccccc2)n(C(=O)c2ccc(N)cc2)n1,>57,?
CN1C(=O)C2(C(C#N)=C(N)Oc3c2oc(CO)cc3=O)c2ccccc21 (centres undefined),>57,4%
O=C(Nc1nc(-c2ccccc2)cs1)C1CCCN(S(=O)(=O)c2ccccc2)C1 (centres undefined),>57,?
O=C(O)c1ccc(Cl)c(NC(=O)C2CCCN2S(=O)(=O)c2cccc3nsnc23)c1 (centres undefined),>57,3%
O=S(=O)(Nc1ccc2nc(-c3ccco3)[nH]c2c1)c1ccccc1,>57,-7%
Cc1csc(NC(=O)CSc2ncnc3c2cnn3-c2ccccc2Cl)n1,>57,-18%
CC(C)C(=O)N(Cc1cc2ccccc2[nH]c1=O)C(C)(C)C,>57,-25%
CCSC1=C(C#N)C(c2ccccc2C)CC(=O)N1 (centres undefined),>57,9%
Cc1cccc(C)c1NC(=O)C(c1cccs1)N(Cc1ccco1)C(=O)Cn1nnc2ccccc21 (centres undefined),>57,?
Cc1nc(N2CCOCC2)c2nc(-c3ccccc3)n(CCN3CCCC3)c2n1,.,3%
CC(C)CN1CCCC2(CCN(C(=O)c3cnccn3)CC2)C1,>57,?
CCC(c1nnnn1Cc1ccco1)N1CCC(C(N)=O)CC1 (centres undefined),>57,-3%
COC(=O)C(CC(=O)Nc1cc(C)ccc1C)Nc1ccccc1OC (centres undefined),>57,-4%
COc1ccc(Cn2nnnc2C(c2ccccc2OC)N2CCC(C(N)=O)CC2)cc1 (centres undefined),>57,5%
O=C(Cc1ccc(-n2cccc2)cc1)NC1CCCCC1,>57,-20%
O=c1nc2n(c3c1oc1ccccc13)Cc1ccccc1-2,>57,6%
CCCn1c(C)nc2c(NCCCN(CC)CC)nc(C)nc21,.,-2%
CCOC(=O)c1sc(NC(=O)CSc2nnnn2-c2ccc(C)cc2C)nc1C,>57,-2%
CC1(NC(=O)C23CC4CC(CC(C4)C2)C3)CCS(=O)(=O)C1 (centres undefined),>57,?
Cc1ccc(NC(=O)NC(=O)CN2C(=O)NC3(CCc4ccccc43)C2=O)c(C)c1 (centres undefined),>57,-1%
Cn1c(C2=C(O)CN(c3ccc4c(c3)OCCO4)C2=N)nc2ccccc21,>57,?
CC(OC(=O)CCCN1C(=O)c2ccccc2C1=O)C(=O)Nc1ncc(Cl)cc1Cl (centres undefined),>57,-2%
C/C(O)=C(/C#N)c1nc2ccccc2[nH]1,>57,?

The list goes on.
SMILES,Prx2 Sm inh,LT uptake inh
CCOc1ccccc1N,.,5%
c1ccc(-n2ncc(-c3nn[nH]n3)n2)cc1,.,-4%
Cc1ccc(-n2c(Cc3cccn3C)nnc2SCC(=O)N2CCN(c3ccccc3)CC2)cc1,>57,-14%
Cc1c(-c2ccccc2)c(P(=O)(N2CCOCC2)N2CCOCC2)c2ccccn12,>57,-3%
O=C1CCC(C(=O)O)(c2ccccc2)C1 (centres undefined),>57,-6%
O=c1/c(=C\c2cccnc2)sc2nc3ccccc3n12,>57,7%
CC(=O)NCCNc1cc(-c2ccccc2CN(C)C)ncn1,>57,-1%
O=C(NCc1cccnc1)C1c2ccccc2C(=O)N1C1CCCCCC1 (centres undefined),>57,-1%
N/C(=N\c1nc2ccccc2o1)NC(=O)C(Cc1ccccc1)N1C(=O)c2ccccc2C1=O (centres undefined),.,?
COCCCN1C(=O)c2ccc(C(=O)Nc3ccc(OC)cc3OC)cc2C1=O,>57,-2%
O=C(C1CCCN(Cc2cccs2)C1)N1CCCCCC1 (centres undefined),>57,10%
c1nnc(NCNc2nncs2)s1,>57,-8%[8 µM]
CCn1c(CNc2ccccc2Cl)nnc1SCC(=O)OC1CCCCC1,>57,17%
CCN1C(C)=C(C(=O)OC)C(c2ccccc2)N2C(=O)[C@](O)(C(=O)OC)C(c3ccccc3)C(C(C)=O)=C12 (some centres undefined),.,-8%[8 µM]
CCOC(=O)CSC1=C(C#N)C(c2ccccc2)C(C(C)=O)=C(C)N1 (centres undefined),>57,-4%
O=C(Cn1cnc2c(cnn2-c2ccccc2)c1=O)OCc1ccccc1,>57,-4%
Cc1nc(SCC(=O)Nc2ccccc2C(F)(F)F)c2c(=O)n(C)c(=O)n(C)c2n1,>57,-16%
Cc1nc2ccccc2c2oc(C(=O)N3CCN(C4CCCCC4)CC3)cc12,>57,-2%
COc1cccc2cc(C(C)N(CCCN3CCOCC3)C(=O)Nc3ccccc3)oc12 (centres undefined),>57,0%
CN(C)/C=C1\C=C(c2ccccc2)OC1=O,>57,18%
CCOc1ccc(OCC)c(NC(=O)C2COc3ccccc3O2)c1 (centres undefined),>57,3%
Cc1ccc(Cl)cc1N1CCN(Cc2nc3c(c(=O)[nH]c(=O)n3C)n2Cc2ccccc2F)CC1,>57,7%
O=C(O)C[C@H](Cc1ccccc1Cl)C(=O)O,>57,1%[8 µM]
Cc1cc(N2C(=O)C(=O)/C(=C(/O)c3ccc(Cl)cc3)C2c2cccc(Br)c2)no1 (centres undefined),>57,5%
CCN(CC)CCCCn1c(-c2ccccc2)nc2c(N3CCOCC3)nc(C)nc21,.,?
O=C(c1ccccc1)c1cc2ccccc2o1,>57,-15%
COc1ccccc1CN1CC(C(=O)NCc2cccnc2)CC1=O (centres undefined),>57,6%
CCOP(=O)(NC(C)C)Oc1ccc(SC)c(C)c1 (centres undefined),.,-2%
Cn1c(=O)c2c(nc(CN3CCC(C(N)=O)CC3)n2Cc2ccccc2Cl)n(C)c1=O,>57,6%
O=C(NCc1ccc(F)cc1)C1CCC(=O)N1CCc1ccccc1 (centres undefined),>57,-17%
Cc1cccc(OCCCCCn2ccnc2)c1,.,-13%
Cc1nc(NCC2CCCO2)c2oc3ccccc3c2n1 (centres undefined),>57,1%
CCOC(=O)C1C(=O)NC(SC)=C(C#N)C1c1ccccc1F (centres undefined),.,-4%
CCOc1ccc2nc(NC(=O)CSC3=NCCS3)sc2c1,>57,?
CC(C)(C)S(=O)(=O)c1ccccc1C(=O)O,>57,-14%
COc1ccccc1NC(=O)C(C)N1CCN(C/C=C/c2ccccc2)CC1 (centres undefined),>57,-11%
CC(C)N1CCc2c(sc(NC(=O)c3ccc(S(=O)(=O)N4CCOCC4)cc3)c2C(N)=O)C1,>57,0%
CCC(Sc1nccn1C)C(=O)Nc1cccc2ccccc12 (centres undefined),>57,-4%
Cc1cc(Nc2ccc(C(C)C)cc2)n2ncnc2n1,>57,-29%
Cc1noc(C)c1-c1nc(NC2CC2)c2ccccc2n1,>57,-10%
COCCNC(=O)c1ccccc1-c1ccccc1C(=O)O,>57,-12%
COc1ccc(CNC(=O)Nc2ccc(OC)cc2)cc1,>57,1%
Cc1onc(-c2ccccc2)c1C(=O)N1CCCc2ccccc21,.,-12%
CCN(CC)S(=O)(=O)N1CCC(C(=O)NC2CCCC2)CC1,>57,7%
CCCn1c(=C(C#N)C#N)s/c(=C2\C=Cc3ccccc3N2CC)c1=O,>57,-4%
CN1CCN(CCCNC(=O)c2ccc3c(c2)N(Cc2ccccc2)CCS3)CC1,>57,-24%
O=C(Cn1c(C(=O)NCCCN2CCOCC2)cc2sccc21)c1ccccc1,>57,0%
